Bioassay records from PubChem BioAssay.
PINK1 modulator – modulators of PINK1 expression; PINK1 immunofluorescence, high-content cytometry, 24 h; Potency, µM (titrated, usually from 76.6 µM), for the others: at the highest dose activation (PINK1 increase), hits mostly activators; 0.2% of 410,000 active; AID 624263; active = well fitted activation curve with a large enough effect; inconclusive = small, poorly fitted or top-dose-only effect; inactive = flat fitted curve, though single readings scatter; cell line not stated here;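 further: potency means the concentration at half of the fitted maximal effect; % of control where 0% means no effect; nearly all actives have a fitted effect of over 65% in size; a mitochondrial uncoupler was the plate control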
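Stable cell line, 250 cells/well, 12 h attachment; compounds pinned at 5 concentrations, 24 h; CCCP control. Fixed with nuclear dye, primary antibodies 12 h at 10 degrees C, secondary plus cell stain; laser-scanning cytometer read.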
CtBP-E1A inh – inhibitors of CtBP/E1A interaction; activity change, % (concentration not given with the values); AID 651724; AlphaScreen GST-E1A/His-CtBP binding, 1536-well; hits give low values; control for the full effect not named in the record; 0.49% of 340,000 active; in the data active means activity change below about -65%; inconclusive means about -30% to -65%; inactive means above about -30%; further: on the % scale 0 is the no-effect control and ±100 the full control effect
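In 5 uL wells, 23 nL compound meets equimolar GST-E1A and His-CtBP (5X stock 125 nM each) for 2 h, 37 °C. Beads (5X, 50 ug/mL) then 1 h, 37 °C, dark.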
D2 potentiator – positive allosteric modulators of human D2 dopamine receptor | P14416 | DiscoveRx D2 beta-arrestin cells, luminescence, 90 min; 100% = 57 uM dopamine signal | potentiation, % (no concentration beside the values) | 0.23% of 360,000 active | AID 624464; active = potentiation of 50% or more; inconclusive = 30% to 50%; inactive = 30% or less;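 further: compound concentration not given in the record; tested on top of an EC20 dose of dopamine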
Target sequence (P14416 whole entry, looked up): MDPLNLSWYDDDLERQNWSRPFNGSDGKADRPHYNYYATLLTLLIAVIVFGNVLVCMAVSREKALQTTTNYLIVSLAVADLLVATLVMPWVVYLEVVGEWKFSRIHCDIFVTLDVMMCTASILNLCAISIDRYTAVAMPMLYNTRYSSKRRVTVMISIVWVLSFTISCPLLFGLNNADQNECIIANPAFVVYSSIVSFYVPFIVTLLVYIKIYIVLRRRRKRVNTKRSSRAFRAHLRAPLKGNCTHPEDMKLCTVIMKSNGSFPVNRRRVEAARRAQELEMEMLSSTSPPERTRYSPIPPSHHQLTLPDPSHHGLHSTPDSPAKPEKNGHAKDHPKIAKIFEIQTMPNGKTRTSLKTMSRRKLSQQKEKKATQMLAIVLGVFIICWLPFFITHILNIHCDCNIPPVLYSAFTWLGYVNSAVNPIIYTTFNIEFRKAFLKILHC
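PathHunter beta-arrestin assay in DiscoveRx D2 cells. Compounds were added with an EC20 of dopamine (50 nM final) for 90 min at 37 deg C. Luminescence was read 1 h after detection reagent, with 57 uM dopamine as the EC100 control.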
TRPML1 ag – human mucolipin-1 channel agonism; Q9GZU1; TRPML1-expressing cells, Ca2+ dye fluorescence, FDSS; host cell line not named in the record; reference of the full effect not given here; activation, % (test concentration not listed); 0.12% of 410,000 active; AID 624414; in the data active = activation above about 50%; inconclusive = about 30% to 50%; inactive = below about 30%; further: 0% is about no effect; the text of the record puts the active cut at 80%
Target sequence (Q9GZU1 whole entry, looked up): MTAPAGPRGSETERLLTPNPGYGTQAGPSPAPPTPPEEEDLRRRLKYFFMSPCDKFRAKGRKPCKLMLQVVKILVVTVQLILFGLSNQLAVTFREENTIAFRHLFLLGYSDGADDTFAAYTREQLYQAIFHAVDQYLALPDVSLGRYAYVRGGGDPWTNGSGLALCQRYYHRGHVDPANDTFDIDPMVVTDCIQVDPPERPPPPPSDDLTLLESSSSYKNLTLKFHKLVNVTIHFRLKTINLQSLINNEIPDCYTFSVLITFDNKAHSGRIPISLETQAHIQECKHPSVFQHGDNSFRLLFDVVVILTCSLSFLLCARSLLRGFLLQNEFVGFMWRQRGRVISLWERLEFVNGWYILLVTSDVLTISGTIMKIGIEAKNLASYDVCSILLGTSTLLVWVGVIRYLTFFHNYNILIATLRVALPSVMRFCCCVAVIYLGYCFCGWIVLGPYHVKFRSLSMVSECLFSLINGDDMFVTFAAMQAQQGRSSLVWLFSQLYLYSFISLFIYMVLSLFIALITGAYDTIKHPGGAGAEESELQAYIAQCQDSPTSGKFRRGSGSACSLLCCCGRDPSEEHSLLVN
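Cells: TRPML1-DL, 1X Tet inducer, ~16 h at 37 degrees C/5% CO2. Dye: ABD Ca8 no-wash + quencher, 45-90 min RT. Read: 10 s baseline, compound add, 110 s agonist phase; 54-4 EC80 (4uM final), 110 s antagonist phase.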
Six1-Eya2 blk – blocks human Six1 binding to Eya2; activity change, % (concentration not given with the values); Q15475+O00167; AlphaScreen GST-Six1/His-Eya2 binding, biochemical; hits give low values; control for the full effect not named in the record; 0.56% of 360,000 active; AID 651725; in the data active = activity change below about -65%; inconclusive = about -30% to -65%; inactive = above about -30%; further: on the % scale 0 is the no-effect control and ±100 the full control effect
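Six1/Eya2 binding was read as AlphaScreen signal after compounds were pinned into GST-Six1 plus His-tagged Eya2 (5X stock 250/500 nM) in pH 8.0 Tris/NaCl/TCEP buffer, beads added, then incubated 1 h, 37 C, dark.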
D2 agonist – agonists of human D2 dopamine receptor (beta-arrestin). activation, % (concentration not given with the values). P14416. AID 624465. 0.084% of 360,000 active. DiscoveRx PathHunter D2 beta-arrestin, luminescence, 90 min; 100% = 57 uM dopamine signal; in the data active = activation above about 40%; inconclusive = about 15% to 40%; inactive = below about 15%; further: compound concentration not given in the record; the text of the record calls up to 30% inactive
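Agonist mode: compounds alone added to overnight-plated D2 PathHunter cells for 90 min at 37 C, with 57 uM final dopamine (EC100) defining full response. Beta-arrestin recruitment detected by chemiluminescent reagent, read after 1 h at ambient temperature.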
The depositor's hits bear a star; ? = inconclusive; nt = no result given; & = joins results of further samples; [ ] = another dose, or the depositor's remark.

Results follow in this order: PINK1 modulator | CtBP-E1A inh | D2 potentiator | TRPML1 ag | Six1-Eya2 blk | D2 agonist
- O=C(CSc1nnc2ccc(-c3ccncc3)nn12)N1CCCCC1
 : 0.1% | 0.7 | -4.6 | nt | -0.3 | -1.7
- C#CCOCCOCCOCCNc1nc(N2CCN(C(=O)[C@H]([C@@H](C)CC)n3cc([C@@H](N)CC(C)C)nn3)CC2)nc(N2CCN(C(=O)[C@H](CCCCN)n3cc([C@@H](N)CC(C)C)nn3)CC2)n1
 : 0.8% | -22.9 | -9.2 | 1.0 | -0.7 | -2.3
- CC(CNS(=O)(=O)c1ccccc1)Sc1nncn1C (stereo not drawn)
 : -0.5% | 3.1 | -3.8 | 0.1 | -4.6 | -4.2
- O=C(OC1CCCCC1=O)c1ccc(F)c(S(=O)(=O)N2CCOCC2)c1 (stereo not drawn)
 : ? | -7.2 | 13.5 | 0.5 | 1.1 | -1.2
- CCc1ccc(N(C(C)=O)C2C=CS(=O)(=O)C2)cc1 (stereo not drawn)
 : 8.2%[38.3 µM] | 7.9 | -5.3 | -0.5 | 2.0 | -1.9
- COCCNC(=O)Cn1cc(C(=S)N2CCCCC2)c2ccccc21
 : -1.2% | 1.0 | -4.2 | 0.5 | 4.1 | -0.5
- O=C(Nc1ccc2c(c1)OCO2)c1cc(-c2ccccc2Cl)on1
 : 11.2% | 6.7 | -12.1 | 1.8 | 4.6 | 0.4
- Cc1ccc(NC(=O)CSCC(=O)Nc2nnc(C)s2)cc1
 : 0.5% | 4.8 | 21.0 | -0.1 | 3.4 | -4.0
- Cc1[nH]n(-c2cccc(Cl)c2)c(=O)c1/C=N/n1c(C)nc2ccccc2c1=O
 : -3.4% | -24.7 | -6.4 | -0.6 | -24.6 | -3.8
- Cn1c(=O)[nH]c(=O)c2c1nc1n2CC(COc2ccc3ccccc3c2)O1 (stereo not drawn)
 : -1.1% | -4.6 | -7.2 | 0.8 | -3.5 | 6.0
- N#Cc1c(/N=C/c2cccnc2)sc2c1CCCC2
 : 0.3% | 5.7 | 20.0 | 2.1 | -8.8 | ?
- O=C1C(=C2CCCCC2)SC(=S)N1Cc1ccco1
 : 12.7% | -18.9 | 6.6 | -0.2 | -14.5 | -4.3
- CSc1ccc(/C=N/NC(=O)c2ccc(-n3cnnn3)cc2)cc1
 : 3.4% | nt | 5.1 | -0.7 | 5.2 | -1.3
- O=C(NCc1cccnc1)c1cc(C2CCCN(C(=O)c3ccc4c(c3)CCO4)C2)on1 (stereo not drawn)
 : 0.7% | 4.4 | 1.6 | -0.7 | 0.8 | -5.4
- CCc1ccc(NC(=O)CS(=O)CC(=O)NCCCc2ccccc2)cc1 (stereo not drawn)
 : nt | 10.1 | -5.7 | -0.7 | 0.0 | 1.1
- COc1ccc(N=Cc2ccc(-c3ccccc3)o2)cc1
 : 0.2% | -21.3 | -7.9 | -0.2 | 3.0 | -1.3
- CC1CN(C(=O)c2cccc(C(=O)N3CC(C)OC(C)C3)c2)CC(C)O1 (stereo not drawn)
 : -1.4% | 10.3 | -1.2 | 0.5 | 10.3 | -1.5
- CCC(C)(C)C1CCc2[nH]nc(C(=O)NC(C)C)c2C1 (stereo not drawn)
 : 2.2% | 1.6 | -11.4 | -1.4 | 3.9 | -1.4
- CN1CCN(C(=O)N(c2ccccc2)c2ccccc2)CC1
 : -1.7% | 1.2 | -1.3 | 0.0 | 0.6 | -1.8
- COc1cccc(C(O)c2nc(-c3cccc(C(=O)O)c3)cs2)c1 (stereo not drawn)
 : 1.4% | 1.1 | 2.9 | -0.2 | 2.3 | -1.3

Carrying on:
Results follow in this order: PINK1 modulator | CtBP-E1A inh | D2 potentiator | TRPML1 ag | Six1-Eya2 blk | D2 agonist
- CCn1c(SCC(=O)N2CCN(c3cccc(Cl)c3)CC2)nc2ccccc2c1=O
 : 8.2% | -4.8 | -9.9 | 2.0 | -5.9 | -0.6
- CC1CC2(CC(CN(C3CCCCC3)C3CCCCC3)OC2=O)C(=O)O1 (stereo not drawn)
 : 0.7% | -0.2 | -2.2 | -0.7 | -7.5 | -2.8
- Cc1nc2cc(N)ccc2n1-c1ccccc1
 : -1.1% | -11.3 | -8.9 | 1.6 | -4.8 | -3.9
- O=C(Cn1cnc2ccccc2c1=O)NCC(=O)N1CCOCC1
 : -0.1% | 0.1 | -4.3 | 0.3 | -1.5 | -1.7
- NC(=O)CSc1nc(-c2ccccc2)nc2c1CCCC2
 : 6.9% | 0.2 | 0.9 | -0.4 | 0.7 | -0.7
- C=CCC[C@H](Cc1ccc(F)cc1)C(=O)OC[C@@H](NC(=O)[C@@H](CC=C)CC(=O)N[C@H](CO)Cc1ccccc1)C(C)(C)C
 : ? | -2.9 | -6.6 | 0.1 | -4.8 | 0.7
- COc1cccc(CNc2ccc(F)c(Cl)c2)c1O
 : -0.5%[38.3 µM] | 0.2 | 6.4 | 1.5 | -4.8 | 3.1
- NC(=O)c1c(NC(=O)c2ccccc2F)sc2c1CCCC2
 : 2.4% | -24.9 | 0.1 | 0.7 | -23.9 | 5.3
- Cn1c(-c2ccccc2)c(C#Cc2ccc(N)cc2)c2ccccc21
 : 11.0% | 4.3 | -1.6 | -1.0 | -5.0 | -4.7
- CC(C(=O)NC1CCCc2ccccc21)N1CCN(c2ccc(F)cc2)CC1 (stereo not drawn)
 : -1.1% | 4.8 | -21.9 | 1.1 | 1.9 | -1.3
- C/C=C1\COC(C(=O)NCc2ccccc2)(C(F)(F)F)C=C1C=C(C)C (stereo not drawn)
 : 7.6% | 4.2 | -19.4 | 1.0&1.6 | 6.2 | -2.7
- COc1cccc(C(=O)NCc2cccnc2)c1
 : 5.2%[38.3 µM] | 3.4 | -4.0 | 0.1 | 0.0 | -0.5
- O=C(NCCN1CCCC1=O)C1CCC(=O)N(CCc2ccc(Cl)cc2)C1 (stereo not drawn)
 : 0.4% | -6.2 | 15.1 | 0.2 | 13.9 | 1.5
- CCNC(=O)Nc1nc2ccccc2s1
 : -0.7% | 10.4 | -5.9 | -0.2 | 2.1 | -5.8
- CN(C)CCCn1c(SCc2ccc(Cl)cc2)nnc1-c1ccncc1
 : -1.5% | nt | -5.1 | -0.4 | -16.0 | 2.8
- Cc1ccc(C)c(OCCC(=O)OCC(=O)NCc2ccccc2)c1
 : -3.1% | 3.2 | -11.0 | 2.9 | 3.4 | -1.5
- COCCn1nnnc1C(c1ccc(OC)cc1)N1CCC(C)CC1 (stereo not drawn)
 : 2.6% | -7.0 | -2.6 | 0.7 | 3.4 | -3.6
- CCC(C)[C@@H](C(=O)Nc1ccc2c(c1)OCO2)N1Cc2ccccc2C1=O (stereo partly drawn)
 : 6.9% | -13.2 | -5.3 | 1.6 | -14.1 | -5.2
- COc1ccc(OC)c(NC(=O)c2ccc(OCC(=O)N3CCOCC3)c(OC)c2)c1
 : 6.2% | 2.6 | -4.2 | 0.2 | 8.2 | 1.2
- CCOc1cccc(C(=O)NC(=S)Nc2cccc(C)c2)c1
 : 1.0% | -6.9 | -12.2 | 2.5 | -19.9 | -2.5

Entries of single compounds from above.
Shown for COc1ccc(OC)c(NC(=O)c2ccc(OCC(=O)N3CCOCC3)c(OC)c2)c1 → PINK1 modulator = 6.2%; CtBP-E1A inh = 2.6; D2 potentiator = -4.2; TRPML1 ag = 0.2; Six1-Eya2 blk = 8.2; D2 agonist = 1.2
Shown for C=CCC[C@H](Cc1ccc(F)cc1)C(=O)OC[C@@H](NC(=O)[C@@H](CC=C)CC(=O)N[C@H](CO)Cc1ccccc1)C(C)(C)C → PINK1 modulator = ?; CtBP-E1A inh = -2.9; D2 potentiator = -6.6; TRPML1 ag = 0.1; Six1-Eya2 blk = -4.8; D2 agonist = 0.7

Next part.
Molecule,PINK1 modulator,CtBP-E1A inh,D2 potentiator,TRPML1 ag,Six1-Eya2 blk,D2 agonist
O=C(COC(=O)C1CCC1)Nc1cc(S(=O)(=O)N2CCCCC2)ccc1Cl,0.9%,-21.5,-11.2,0.0,2.5,-0.6
CC(C)(C)C(=O)Nc1cccc(-c2nc3ccccc3c(=O)o2)c1,nt,7.7,14.4,1.1,-2.1,0.0
CCOC(=O)[C@H]1[C@H]2COc3ccccc3[C@@H]2N2C(=O)CN(CC3CCCO3)C(=O)[C@@]12C (stereo partly drawn),0.0%,5.2,-2.1,0.2,5.4,-5.4
CC(Sc1ccccc1)C(=O)N1CCN(S(=O)(=O)c2cccc(Br)c2)CC1 (stereo not drawn),0.3%,0.0,-14.9,-0.5,-16.1,-5.7
CCN(CC)CCN1C(=O)C(O)=C(C(=O)c2cccs2)C1c1ccccn1 (stereo not drawn),2.4%[38.3 µM],-3.3,-3.5,-0.9,-0.1,3.4
O=C(Nc1ccc(S(=O)(=O)Nc2cnc3ccccc3n2)cc1)c1ccccc1Br,2.1%,0.0,-10.4,-0.1,-29.0,-3.4
O=C(Nc1ccc(F)c(Cl)c1)c1csc([C@H]2C[C@H](O)[C@@H](CO)O2)n1,0.3%,0.3,-5.9,-0.5,2.2,3.4
O=C1OCCC/C1=C\c1ccc2c(c1)OCO2,0.4%,nt,-1.2,-0.4,-2.6,-0.6
C/C(=N\NC(=O)c1ccc2c(c1)OCO2)c1ccc(C(=O)O)s1,0.8%,-2.4,-9.2,0.3,-14.8,-6.6
COCCn1nnnc1C(c1cc2cc(C)ccc2[nH]c1=O)N1CCCCCC1 (stereo not drawn),?,0.0,1.8,0.7,-1.4,-0.9
CC1CN(C(=O)/C=C/c2ccccc2Cl)CC(C)O1 (stereo not drawn),2.2%,8.7,-0.3,0.6,0.2,-1.5

For convenience, some entries already given.
Molecule,PINK1 modulator,CtBP-E1A inh,D2 potentiator,TRPML1 ag,Six1-Eya2 blk,D2 agonist
CCn1c(SCC(=O)N2CCN(c3cccc(Cl)c3)CC2)nc2ccccc2c1=O,8.2%,-4.8,-9.9,2.0,-5.9,-0.6
CC1CC2(CC(CN(C3CCCCC3)C3CCCCC3)OC2=O)C(=O)O1 (stereo not drawn),0.7%,-0.2,-2.2,-0.7,-7.5,-2.8
Cc1nc2cc(N)ccc2n1-c1ccccc1,-1.1%,-11.3,-8.9,1.6,-4.8,-3.9

Compounds from the list above with a COOH group (two):
Molecule,PINK1 modulator,CtBP-E1A inh,D2 potentiator,TRPML1 ag,Six1-Eya2 blk,D2 agonist
COc1cccc(C(O)c2nc(-c3cccc(C(=O)O)c3)cs2)c1 (stereo not drawn),1.4%,1.1,2.9,-0.2,2.3,-1.3
C/C(=N\NC(=O)c1ccc2c(c1)OCO2)c1ccc(C(=O)O)s1,0.8%,-2.4,-9.2,0.3,-14.8,-6.6
